# Kir21 block: inhibitors of mouse Kir2.1 inward-rectifier potassium channel. P35561. HEK293-Kir2.1, FluxOR thallium flux fluorescence; hits give low values. B-score at 10 µM. 310,000 compounds, 0.85% hits. AID 1672;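 active = fluorescence ratio B-score at or below minus 3 SD of library scores, with starting-brightness B-score within 2 SD, cut at about -4.2 in these data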;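 note: channel flux triggered by added potassium and thallium sulfate stimulus; B-score of peak minus minimum fluorescence over baseline after thallium stimulus; more negative B-score means stronger Kir2.1 block with less thallium influx; some compounds called inactive have numbers as strong as hits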
# Target sequence (P35561 whole entry, looked up): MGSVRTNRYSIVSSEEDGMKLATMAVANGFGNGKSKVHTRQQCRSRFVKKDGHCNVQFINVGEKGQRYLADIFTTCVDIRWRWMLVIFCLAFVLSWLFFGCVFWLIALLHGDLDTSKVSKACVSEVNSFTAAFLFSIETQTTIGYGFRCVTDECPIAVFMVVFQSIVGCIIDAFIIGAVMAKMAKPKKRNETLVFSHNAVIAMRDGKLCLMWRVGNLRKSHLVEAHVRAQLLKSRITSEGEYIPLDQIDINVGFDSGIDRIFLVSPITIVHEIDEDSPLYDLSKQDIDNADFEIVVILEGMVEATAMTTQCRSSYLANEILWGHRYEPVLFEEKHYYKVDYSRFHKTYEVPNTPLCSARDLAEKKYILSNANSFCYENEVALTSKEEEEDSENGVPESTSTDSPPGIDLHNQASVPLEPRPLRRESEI
# Active calls of the source: *.
Kir21 block,SMILES
-0.8,COc1cc2c(cc1OC)C(NC(=O)C(F)(F)F)C/C2=N\O (stereo unspecified)
0.88,CCN1CCN(c2ncc(C(=O)Nc3c(F)cc(F)cc3Br)c3ccccc23)CC1
1.6,Cc1cc(CNC(=O)COc2cc(F)ccc2[N+](=O)[O-])c2ccccc2n1
0.01,Cc1nnc(NC(=O)CSc2nnc(C)n2-c2ccc(F)cc2)s1
0.02,O=C(Nc1cccnc1)c1sc2cccc(F)c2c1Cl
-2.4,Cc1ccc2cccc(OCCCOc3ccccc3CO)c2n1
-2.3,COc1ccc(OCC(=O)Nc2ccccc2C(=O)NC(C)C)cc1
0.73,COc1ccc(CNC(=S)Nc2cc(C)ccc2C)cc1
0.61,C/C(Cl)=C\Cn1c(Nc2ccccc2)nc2c1c(=O)n(C)c(=O)n2C
2.4,Cc1ccc(OCC(=O)NCCCNC(=O)c2ccncc2)cc1
-0.36,COC(=O)c1ccc([C@H]2CC(=O)O2)cc1
0.84,O=C(Cc1ccccc1)Nc1ncccc1Cl
-0.04,O=C(NCC1OCCCN1S(=O)(=O)c1cc(F)ccc1F)C(=O)NC1CCCCC1 (stereo unspecified)
0.67,O=C(CNC(=O)c1ccc(Br)o1)Nc1ncccc1O
-0.13,Cc1nc2cc(Cl)c(Cl)cc2n1-c1ccccn1
1.3,O=C(Cc1ccc(N2CCNC2=O)cc1)N1CCCC(Nc2cccc(F)c2)C1 (stereo unspecified)
-2.2,Cc1ccc(Cn2nnc3c(=O)n(CC(=O)NCc4ccccc4)cnc32)cc1
-0.4,CCN(CC)CCSc1nc(O)c(-c2ccccc2)c(=O)[nH]1
0.41,COC(=O)c1ccc2c(=O)n(CC3CCCO3)c(SCC(=O)NCCc3ccc(S(N)(=O)=O)cc3)nc2c1 (stereo unspecified)
0.42,COCCNC(=O)c1cc(Sc2nnc(C)s2)nc2ccccc12
-0.74,N#Cc1cc2cc3c(cc2nc1SCC(=O)N1CCOCC1)OCCO3
-2.1,COc1ccc(CC(=O)NC2CCCc3ccccc32)cc1 (stereo unspecified)
0.67,NC(=O)CSc1nnc2n(-c3ccccc3)c(=O)c3c4c(sc3n12)CCCCC4
0.05,CC(C)(C)c1ccc(OCC(O)CN2CCCC2)cc1 (stereo unspecified)

# 15 structures out of the list, ordered by molecular weight, smallest number first:
Kir21 block,SMILES
-0.36,COC(=O)c1ccc([C@H]2CC(=O)O2)cc1
0.84,O=C(Cc1ccccc1)Nc1ncccc1Cl
-0.13,Cc1nc2cc(Cl)c(Cl)cc2n1-c1ccccn1
-2.1,COc1ccc(CC(=O)NC2CCCc3ccccc32)cc1 (stereo unspecified)
0.73,COc1ccc(CNC(=S)Nc2cc(C)ccc2C)cc1
-0.4,CCN(CC)CCSc1nc(O)c(-c2ccccc2)c(=O)[nH]1
2.4,Cc1ccc(OCC(=O)NCCCNC(=O)c2ccncc2)cc1
0.67,O=C(CNC(=O)c1ccc(Br)o1)Nc1ncccc1O
-2.3,COc1ccc(OCC(=O)Nc2ccccc2C(=O)NC(C)C)cc1
0.61,C/C(Cl)=C\Cn1c(Nc2ccccc2)nc2c1c(=O)n(C)c(=O)n2C
-0.74,N#Cc1cc2cc3c(cc2nc1SCC(=O)N1CCOCC1)OCCO3
-2.2,Cc1ccc(Cn2nnc3c(=O)n(CC(=O)NCc4ccccc4)cnc32)cc1
0.67,NC(=O)CSc1nnc2n(-c3ccccc3)c(=O)c3c4c(sc3n12)CCCCC4
-0.04,O=C(NCC1OCCCN1S(=O)(=O)c1cc(F)ccc1F)C(=O)NC1CCCCC1 (stereo unspecified)
0.41,COC(=O)c1ccc2c(=O)n(CC3CCCO3)c(SCC(=O)NCCc3ccc(S(N)(=O)=O)cc3)nc2c1 (stereo unspecified)

# (more compounds)
Kir21 block,SMILES
-0.18,Cc1ncoc1C(=O)Nc1ccccc1C(N)=O
-0.01,CCN(CC(=O)NCc1ccc(F)cc1)C(=O)c1ccc(Cl)cc1
0.26,Cn1nnnc1SCC(=O)Nc1nc(-c2ccccc2)c(-c2ccccc2)o1
1.8,CCn1c(Cc2ccccc2)nnc1SCC(=O)Nc1nc2ccccc2s1
-3.1,Cc1c(NC(=O)CSc2ccc3c(c2)OCCO3)c(=O)n(-c2ccccc2)n1C
1.4,CCC1(c2ccc(F)cc2)NC(=O)N(CC(=O)N2CCN(S(=O)(=O)c3ccc(C)cc3)CC2)C1=O (stereo unspecified)
-0.02,CCOc1ccc(C(=O)CN2C(=O)NC3(CCCCCC3)C2=O)cc1
0.23,N#CC1=C(N)Oc2cc(O)ccc2C1c1cccnc1 (stereo unspecified)
-0.82,CCc1ccc2oc(C(=O)NCc3ccncc3)c(C)c2c1
-2.7,CN1CCN(C(CNS(=O)(=O)c2ccc(Br)cc2)c2ccc3c(c2)OCO3)CC1 (stereo unspecified)
-0.07,Cc1ccc(NC(=O)c2cc(NC(=O)C3CC=CCC3C(=O)O)ccc2N2CCOCC2)cc1Cl (stereo unspecified)
0.01,Cc1nn(C)c(Cl)c1C(=O)NC(C(=O)O)c1ccccc1 (stereo unspecified)
-0.55,CC(=O)N1N=C(c2ccccc2)CC1c1cn(C)c2ccccc12 (stereo unspecified)
-0.54,O=C(C1CCCN(S(=O)(=O)c2ccc(Cl)cc2)C1)N1CCCC1 (stereo unspecified)
0.18,O=C(c1ccncc1)N1CCN(C(=O)c2cccs2)CC1
0.2,CCOC(=O)C1(CCOc2ccccc2)CCN(C(=O)c2cncs2)CC1
-0.85,Cc1ccc(C(=O)Nc2nc3n(n2)C(c2ccccc2)CC(=O)N3)cc1 (stereo unspecified)
0.96,Cc1noc(C)c1COC(=O)CN(C)S(=O)(=O)c1ccc(Cl)cc1
-0.18,COc1ccccc1N(CC(=O)NCC(C)C)S(=O)(=O)c1cccs1
-1.3,Cc1cc(C)n(-c2ccc(NC(=O)C3CCCCN3C(=O)c3ccoc3)cc2)n1 (stereo unspecified)
-1.2,Cc1ccc(N(C)C(=O)c2cc(S(=O)(=O)N3CCCCC3)c[nH]2)cc1
-0.39,CC(=O)N1c2ccc(S(=O)(=O)N3CCCC(C(=O)NCc4ccccc4)C3)cc2CC1C (stereo unspecified)
-1.6,COc1ccccc1NC(=O)CN(C)S(=O)(=O)c1cc(C)ccc1OC
0.25,S=C(NCc1ccco1)Nc1ccc(Br)cc1Cl
-0.85,CC(C)C[C@H](NC(=O)[C@@H](Cc1ccccc1)n1c(=O)[nH]c2ccccc2c1=O)C(=O)N[C@@H](Cc1ccccc1)C(=O)O
-0.19,CCOC(=O)COc1cccc2c(=O)n(CC(=O)NCc3ccc4c(c3)OCO4)ccc12
-0.33,O=C(N/N=C\c1cc2c(cc1Cl)OCO2)c1cccs1
-1.4,COc1ccc(CNC(=O)Cn2cc(C(F)(F)F)ccc2=O)cc1OC
-0.68,O=C1c2ccccc2C(=O)N1CN(C(=O)c1ccccc1[N+](=O)[O-])c1ccc(F)cc1
-0.21,Cc1ccc(S(=O)(=O)c2nc(S(C)(=O)=O)sc2N2CCC3(CC2)OCCO3)cc1
-1.3,Cn1ccnc1C(O)(c1ccccc1)c1ccccc1
0.95,Cc1cc(C)c(NC2=CC(=O)CC(C)(C)C2)c(C#N)c1
-1.1,O=C(NNC(=O)c1cnccc1C(F)(F)F)c1cccc(Cl)c1
-1.9,CC(C)(C#CCN1CCCC1)OCCC#N
0,CN(CC(=O)Nc1ccc(C#N)cc1)CC(=O)Nc1ccc(N2CCOCC2)cc1
1.4,Cc1nc(N)sc1C(=O)N/N=C/c1ccccc1[N+](=O)[O-]
-0.1,CS(=O)(=O)c1nc(S(=O)(=O)c2ccc(Cl)cc2)c(N2CCCCCC2)s1
-0.67,Cn1c(NC(=O)c2cc(Br)ccc2Cl)cc(=O)n(C)c1=O
0.83,COc1cc(NC(=O)CN(c2ccc(C)cc2)S(=O)(=O)c2c(C)nn(C)c2C)cc(OC)c1
-2.8,CC(C)(C)NC(=O)CN(C(=O)Cn1nnc(-c2ccc(Cl)cc2)n1)C1CCN(Cc2ccccc2)CC1
0.74,CCOC(=O)c1c(NC(=O)C2C3C=CC(C3)C2C(=O)O)sc2c1CCC(C)C2 (stereo unspecified)
1.5,COc1cccc(N2CC(C(=O)Nc3nnc(SCc4cccnc4)s3)CC2=O)c1 (stereo unspecified)
-0.32,COc1cc(OC)c(C2SCCS2)c(OC)c1
-0.85,COc1ccc(C)cc1NC(=O)NC1CCCCCCC1
0.09,CC(=O)c1cc2c(cc1NC(=O)CSc1nc3ccccc3o1)OCO2
-4.2,Cc1onc(-c2c(F)cccc2Cl)c1C(=O)NCc1ccco1
0.08,COc1ccc(C2=NOC(C(=O)NCc3ccco3)C2)cc1 (stereo unspecified)
0.28,O=C(c1ccc(S(=O)(=O)N2CCOCC2)cc1)N1CCN(c2ccccn2)CC1
0.15,O=C(N/N=C/c1ccccc1)c1ccc(N2CCOCC2)c([N+](=O)[O-])c1
1.8,COc1ccc(NC(=O)N2CCCCCC2)cc1
0.59,O=C(NCCCN1CCCCCC1)C1CC(=O)N(CCc2ccccc2)C1 (stereo unspecified)
-0.01,COc1ccc(Br)cc1CNC(=O)CCCc1cn(C)c2ccccc12
0,CN(C)c1ccc(P(=O)(OCc2ccccc2)C(O)c2cccnc2)cc1 (stereo unspecified)
0.71,COc1ccccc1N1CCN(C(=O)CSc2nnc(NC(=O)C3CC3)s2)CC1
0.35,COc1cccc(NC(=O)CN(C)C(C)C(=O)Nc2ccc(C#N)cc2)c1 (stereo unspecified)
0.58,Cc1ccc(NC(=S)NC(=O)C2CC2)c(C)c1
0.81,Cc1cc(NC(=O)Cc2csc(-c3ccccc3)n2)ccc1Br
0.09,COCCNC(=O)CSc1nc2cc3c(cc2c(=O)n1Cc1ccco1)OCO3
1.4,O=S(=O)(Nc1ccc2nc(C(F)(F)F)[nH]c2c1)c1ccccc1
0.11,CC[C@@H](C)[C@H](NC(=O)CCc1c(C)c2cc3c4c(oc3c(C)c2oc1=O)CCCC4)C(=O)O

# Additional results:
Kir21 block,SMILES
0.25,COc1cc(OC)cc(-c2cc3nc(C4CCN(C(=O)OC(C)(C)C)CC4)cc(=O)n3[nH]2)c1
-1.2,COc1cc(CNCCc2ccc(S(N)(=O)=O)cc2)ccc1OCC(=O)N1CCCCC1
1.3,CCN(C1CCS(=O)(=O)C1)S(=O)(=O)c1cccc([N+](=O)[O-])c1 (stereo unspecified)
-0.99,COc1cccc(NS(=O)(=O)c2ccc(S(=O)(=O)N3CCOCC3)cc2)c1
-1.3,CC#CCN1c2ccccc2[C@]23C[C@@H](C(=O)OC)N(C(=O)c4cc(C)oc4C)C2=NC(C(=O)OC)=C(C(=O)OC)[C@H]13
-1.4,O=C(Nc1c(Cl)cccc1Cl)C1CCC1
0.33,COc1ccc(CNC(=O)[C@H](Cc2ccccc2)NC(=O)C2CCNCC2)cc1
-1.3,O=C(NC1CCCN(C2Cc3ccccc3C2)C1)c1ccc(F)cc1Cl (stereo unspecified)
2.4,CC1CCC2(CC1)NC(=O)N(CC(=O)Nc1ccccc1-c1ccccc1)C2=O (stereo unspecified)
0.29,COc1ccc(-c2nnc3ccc(SCc4ccccc4)nn23)cc1
0.79,CSc1nc(-c2ccco2)nn1C(=O)c1cccs1
-0.22,CC(C)(C)c1ccc(C(=O)N2CCNC(=O)C2CC(=O)Nc2ccc(F)cc2)cc1 (stereo unspecified)
0.78,O=C(C1CC1)N1N=C(c2ccccc2)CC1(O)C(F)(F)F (stereo unspecified)
-1.6,CCCc1cc(=O)oc2cc(OCC(=O)NCCCN3CCCC3=O)ccc12
0.43,C/C(=N\NC(=O)c1c(Br)c(C)nn1C)c1cccc(NC(=O)C2CCC2)c1
-0.04,O=C(CN1C(=O)C2CCCCC2C1=O)Nc1nc(-c2ccccn2)cs1 (stereo unspecified)
-1.2,CC(C)(C)Sc1nc(O)cc(=O)[nH]1
1.1,COc1ccc(S(=O)(=O)NCC2CCCN(C(=O)c3cccs3)C2)cc1 (stereo unspecified)
0.9,CC(=O)Nc1ccc(/C(C)=N/NC(=O)c2ccccc2Cl)cc1
2.7,O=[N+]([O-])c1ccccc1S(=O)(=O)NC1CC2CCC1C2 (stereo unspecified)
-0.06,COc1ccc(-c2nc(NC(=O)c3ccc(OCC(=O)Nc4ccc(F)cc4)c(OC)c3)sc2C)cc1
0.27,CCCNC(=S)Nc1cc2oc3ccccc3c2cc1OC
-1.2,CCN(CC)S(=O)(=O)c1ccc2c(c1)nc(SCC(=O)N1CCCCCC1)n2-c1ccc(OC)cc1
0.95,O=C(O)c1cn[nH]c1-n1cnnn1
1.9,Cc1[nH]c2ccccc2c1C(=O)CSc1ccccn1
-0.38,O=C(CN1CCCC1)Nc1ccc(Br)cc1
0.45,O=C(NC1CC1)C1=C[C@@H](c2ccc(Br)cc2)C[C@@H](OCc2ccc(CO)cc2)O1
0.16,O=C(CCCOc1ccccc1)Nc1ncccn1
-0.41,O=C(Nc1ncc([N+](=O)[O-])s1)c1ccco1
0.84,Cn1c(=O)c2c(nc(CN3CCN(Cc4ccccc4)CC3)n2CCN2CCOCC2)n(C)c1=O
0.23,COc1ccc(NS(=O)(=O)c2ccc(Cl)c(NC(=O)c3cccnc3Cl)c2)cc1
-1.3,COc1cc2cc(CN(CCCN3CCOCC3)C(=O)Nc3ccccc3F)c(=O)[nH]c2cc1OC
0.14,C#CCn1cnc2c(cnn2-c2ccc(C)c(C)c2)c1=O
2.2,CC(=O)COc1nc2c(c(-c3ccco3)c1C#N)CCc1ccccc1-2
2.1,CC(C)(C)c1ccc(C(=O)N/N=C2\C3CN4CCN(C3)CC2(c2ccccc2)C4)cc1
-0.05,O=C(NC1CC2CCCC(C1)N2Cc1ccccc1)c1cccc(F)c1 (stereo unspecified)
-0.53,Nc1nnc(SCC(=O)c2ccc3ccccc3c2)s1
0.72,Cc1ccc(C(=O)n2cnc3ccccc32)cc1C
0.86,CCCc1cc(=O)[nH]c(N/N=C/C=C\c2ccccc2)n1
0.1,COc1nc(-c2ccccc2)nnc1-c1ccccc1

# Screens (PubChem)

# These rows are one share of the data, and most or all hits are left out here.
